From PubChem BioAssay
Cruzain inh noDet: cruzain (T. cruzi) inhibition without detergent; P25779; purified cruzain, Z-FR-AMC fluorescence, no detergent; Potency, µM, for inactives: max response, negative = inhibition, most hits filed as inhibitors; 2.3% of 200,000 active; AID 1476;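 note: plate controls were enzyme without inhibitor for no effect and buffer without enzyme for full effect; nearly all actives have a fitted effect of over 40% in size; top concentration of the series not given in the record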
Target sequence (P25779 123-467 limits assumed): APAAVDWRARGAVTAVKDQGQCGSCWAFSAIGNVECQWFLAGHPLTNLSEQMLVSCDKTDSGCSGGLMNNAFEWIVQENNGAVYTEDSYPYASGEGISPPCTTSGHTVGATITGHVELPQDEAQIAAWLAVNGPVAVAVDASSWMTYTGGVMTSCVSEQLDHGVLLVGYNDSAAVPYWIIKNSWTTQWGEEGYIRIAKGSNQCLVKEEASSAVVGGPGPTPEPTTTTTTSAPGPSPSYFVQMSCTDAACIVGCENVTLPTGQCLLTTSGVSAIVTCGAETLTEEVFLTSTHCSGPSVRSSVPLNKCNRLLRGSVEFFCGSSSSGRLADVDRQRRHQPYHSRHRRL
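Detergent-free condition (0.00005% Triton X-100) in acetate buffer pH 5.5 with DTT. 1.5 nM enzyme and compound were pre-mixed 15 min, then 2 uM Z-FR-AMC substrate added; reaction progress from fluorescence change between first and third reads (60 s).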
MARV entry inh: inhibitors of Marburg virus binding or cell entry; Marburg virus pseudotyped entry inhibition, cell reporter; control for the full effect not named in the record; about a third of the inactives were read at about 46 µM; Potency, µM (top dose mostly 37.8 µM), for the others: top-dose activity change, negative = inhibition, most hits filed as inhibitors; 1.8% of 300,000 active; AID 540276; active = well fitted inhibition curve with a large enough effect; inconclusive = small, poorly fitted or top-dose-only effect, or effect the other way; inactive = flat fitted curve, though single readings scatter; tested in HEK293 cells; about a fifth of its hits are not listed in these tables; note: % is set by controls: 0 for no effect and ±100 for the full control effect; luciferase read-out
SARS PLP yeast: inhibitors of SARS-CoV papain-like protease in yeast | S. cerevisiae expressing SARS-CoV PLpro, growth rescue; control for the full effect not named in the record | 0.19% of 330,000 active | Potency, µM (top dose mostly 32.9 µM), without a hit: top-dose activity, positive = growth rescue; active means well fitted rising curve with a large enough effect; inconclusive means small, poorly fitted or top-dose-only effect; inactive means no such curve, though single readings can be large or run the other way; note: 0% is about no effect; nearly all actives have a fitted effect of over 55% in size; growth read by luminescence after 48 h
NS1 inh: influenza NS1 inhibition. S. cerevisiae slowed by influenza A NS1, growth recovery by OD600. Potency, µM (titrated, usually from 46.1 µM), inactives show at the highest dose activity, positive = more growth. 0.4% of 270,000 active; active means well fitted rising curve with a large enough effect; inconclusive means small, poorly fitted or top-dose-only effect; inactive means no such curve, though single readings can be large or run the other way; note: nearly all actives have a fitted effect of over 50% in size
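S. cerevisiae expressing influenza A NS1, grown in glucose, washed, then diluted 1:100 into pH 6.0 -URA galactose medium with 23 nl compound. Growth recovery read as OD600; NS1-free strain serves as control.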
Lassa entry inh: Lassa virus entry inhibition. Potency, µM (series often up to 37.9 µM), inactives show top-dose activity change, negative = inhibition, hits mostly inhibitors. AID 540256. 1.2% of 300,000 active. Lassa virus pseudotype entry inhibition, cell reporter; control for the full effect not named in the record; active means well fitted inhibition curve with a large enough effect; inconclusive means small, poorly fitted or top-dose-only effect, or effect the other way; inactive means flat fitted curve, though single readings scatter; tested in HEK293 cells; note: % is set by controls: 0 for no effect and ±100 for the full control effect; nearly all actives have a fitted effect of over 50% in size; luciferase read-out
RE007 growth inh: less growth of the S. pombe RE007 Vpr strain | 0.21% of 360,000 active | Potency, µM (top dose mostly 92.2 µM), for the others: at the top dose activity change, negative = less growth | S. pombe RE007 Vpr strain, BacTiter-Glo ATP luminescence, 24 h; control for the full effect not named in the record; active = well fitted falling curve with a large enough effect; inconclusive = small, poorly fitted or top-dose-only effect; inactive = no such curve, though single readings can be large or run the other way;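 note: % is set by controls: 0 for no effect and ±100 for the full control effect; nearly all actives have a fitted effect of over 50% in size; the assay follows cell death caused by Vpr and the record does not say whether a fall means rescue or toxicity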
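Fission yeast strain RE007, carrying one chromosomally integrated HIV-1 vpr copy, was seeded at OD 0.01 in PMG+AL medium with 23 nL pinned compound. After 24 h at 30 °C and 99% humidity, viability was read by BacTiter-Glo luminescence.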
2A StopGo: FMDV 2A StopGo reporter, luciferase signal. human cells with a luciferase reporter of 2A StopGo recoding; control for the full effect not named in the record. Potency, µM (series often up to 57.9 µM), for the others: at the top dose signal change, negative = less light. 1.2% of 410,000 active; active = well fitted falling curve with a large enough effect; inconclusive = small, poorly fitted or top-dose-only effect; inactive = no such curve, though single readings can be large or run the other way; tested in HEK293T cells; note: % is set by controls: 0 for no effect and ±100 for the full control effect; nearly all actives have a fitted effect of over 45% in size; luciferase light after 4 h
Cruzain Triton: cruzain (T. cruzi) inhibition with detergent; purified cruzain, Z-FR-AMC fluorescence, 0.01% Triton; Potency, µM, for the others: max response, negative = inhibition, usual class: inhibitors; 0.43% of 200,000 active; P25779;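 note: plate controls were neutral wells for no effect and buffer without enzyme for full effect; nearly all actives have a fitted effect of over 40% in size; top concentration of the series not given in the record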
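15 min RT preincubation of 1.5 nM cruzain with compound, then 2 uM Z-FR-AMC added; kinetic AMC fluorescence, 60 s delta. Triton X-100 0.01%, pH 5.5.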
* hit, by the source's call; ? = inconclusive; . = not tested or not shown; & = joins results of further samples; [ ] = dose if it differs, or a comment. Unless noted, calls come from the whole dose curve; as a rule, active = well fitted curve in the direction sought with a large enough effect; inconclusive = small, poorly fitted or top-dose-only effect, or another doubt; inactive = no such curve, though single readings can be large; an effect the other way counts as inactive or inconclusive. Potency is the fitted concentration of half-maximal effect.

[1] CCN1CCN(c2c(S(=O)(=O)c3ccc(Cl)cc3)cnc3ccccc23)CC1
[2] CCOC(=O)c1ccccc1NC(=O)CSc1nccn1C
[3] O=C(Nc1ccc(Cl)cc1-c1nc2ccccc2s1)c1ccco1
[4] Cc1cc(Nc2ccccc2F)n2ncnc2n1
[5] Cc1ccc(C(=O)COC(=O)c2cc(-c3ccccc3)nc3ccccc23)cc1C
[6] COc1ccc(S(=O)(=O)N2CCc3ccccc32)cc1[N+](=O)[O-]
assay / entry,1,2,3,4,5,6
Cruzain inh noDet,2%,1%,-27%,3%,-5%,.
MARV entry inh,?,15%,-22%,.,.,.
SARS PLP yeast,.,3%,3%,1%,.,-2%
NS1 inh,.,-5%,-6%,?,.,-4%
Lassa entry inh,.,?,3%,.,11%[46.1 µM],.
RE007 growth inh,.,-7%,0%,16%,.,-16%
2A StopGo,-10%,-15%,-9%,-8%,11%,?
Cruzain Triton,-1.4%,1.7%,-3.1%,-6.5%,-2.3%,.

[7] COc1ccc(-c2nc3c(c(SCC(=O)Nc4ccccc4OC)n2)Cc2cccc(C)c2O3)cc1
[8] COc1cccc(NC(=O)C(=O)N2CCOCC2)c1
[9] O=C(Cc1ccc(S(=O)(=O)N2CCOCC2)s1)N1CCN(S(=O)(=O)c2cccc([N+](=O)[O-])c2)CC1
[10] O=C(CSc1ncnc2ccccc12)NCc1ccco1
[11] Cc1cccc(-n2ccnc2SCC(=O)Nc2ccc(F)cc2F)c1C
[12] CP(C)(=O)CCP(=O)(c1ccccc1)c1ccccc1
assay / entry,7,8,9,10,11,12
Cruzain inh noDet,-4%,-2%,.,-1%,-11%,-5%
MARV entry inh,-10%[46.1 µM],7%,-2%,9%,.,-2%
SARS PLP yeast,.,9%,-1%,?,.,14%
NS1 inh,.,10%,.,-12%,.,16%
Lassa entry inh,17%[46.1 µM],3%,?,0%,-5%[46.1 µM],-6%
RE007 growth inh,.,16%,2%,2%,.,-9%
2A StopGo,-20%,89%[activator],-28%,-19%,0%,6%
Cruzain Triton,-1.2%,-0.8%,.,-4.6%,-5.1%,-1.3%

[13] COc1ccc2c(=O)c(-c3ccccc3)coc2c1
[14] CCc1ccc(OCCNC(=O)c2ccco2)cc1
[15] O=C(O)c1ccc2c(=O)n3c(nc2c1)/C(=C/c1cccc(Cl)c1Cl)CCCC3
[16] Cc1ccc(S(=O)(=O)N(CC(=O)Nc2ccc(Cl)c([N+](=O)[O-])c2)C2CCCCC2)cc1
[17] Cc1onc(-c2c(Cl)cccc2Cl)c1C(=O)N1CCc2ccccc21
[18] NC(=O)C1(c2ccccc2)CCC(=O)N1c1ccccc1 (stereo not given)
assay / entry,13,14,15,16,17,18
Cruzain inh noDet,?,.,?,13µM*,12%,.
MARV entry inh,.,.,-20%,?,?,0%[14.2 µM]
SARS PLP yeast,-3%,-7%,-10%,0%,-6%,1%
NS1 inh,-32%,-29%,0%,?,-10%,2%
Lassa entry inh,.,.,1%,?,-14%,?
RE007 growth inh,-2%,-29%,17%,-3%,-7%,3%
2A StopGo,26%,33%[activator],?,19%,?,3%
Cruzain Triton,19%,.,-6.0%,-6.0%,-0.3%,.

[19] COc1ccc(-c2oc(/N=C/N3CCCC3)c(C#N)c2-c2ccc(OC)cc2)cc1
[20] COc1cc2ccccc2cc1C(=O)NC(=S)Nc1nnn(C)n1
[21] N#CC[C@H](c1ccccc1)N1CCN(Cc2ccccc2)CCC1=O
[22] O=C1NC(=Nc2cccc(Cl)c2)SC1Cc1cccc(Cl)c1Cl (stereo not given)
[23] COc1ccc(CN(C)C(=O)CNC(=O)CNC(=O)c2ccc(Cl)cc2Cl)cc1F
[24] CNC(=O)c1sc(N2N=C3/C(=C/c4ccccc4)CCCC3C2c2ccccc2)nc1C (stereo not given)
assay / entry,19,20,21,22,23,24
Cruzain inh noDet,-17%,-7%,.,?,.,?
MARV entry inh,-7%,-2%,.,-23%,?,?
SARS PLP yeast,-1%,4%,-6%,0%,0%,0%
NS1 inh,-3%,24%,-5%,23%,2%,14%
Lassa entry inh,-26%,0%,.,?,5%[46.1 µM],?
RE007 growth inh,-11%,-7%,8%,7%,0%,-1%
2A StopGo,-22%,-13%,9%,.,-1%,?
Cruzain Triton,0.1%,-2.0%,.,-1.1%,.,-5.1%

[25] COC(=O)c1ccc(S(=O)(=O)N2CCCN(Cc3ccccc3)CC2)n1C
[26] Cc1ccc(N2CCN(S(=O)(=O)c3ccc(F)c(C)c3)CC2)c(C)c1
[27] Cc1ccc(OCCCCCN2CCOCC2)cc1
[28] CC(=O)c1nn(-c2ccc(Cl)cc2)cc1C(=O)c1ccccc1
[29] COc1ccc(-c2noc(C3CCCN(C(=O)c4c(F)cccc4F)C3)n2)cc1OC (stereo not given)
[30] CCCCCC(=O)NC(=S)Nc1cccc(-c2nc3ncccc3o2)c1
assay / entry,25,26,27,28,29,30
Cruzain inh noDet,.,-19%,.,.,.,.
MARV entry inh,1%,-18%[46.1 µM],14%,?,?,-13%[46.1 µM]
SARS PLP yeast,0%,-3%,1%,.,-3%,2%
NS1 inh,0%,-58%,-2%,.,1%,-2%
Lassa entry inh,?,?,-4%,-7%,-17%[46.1 µM],11%[46.1 µM]
RE007 growth inh,-13%,-4%,?,1%,11%,-8%
2A StopGo,-17%,-26%,28%,-5%,10%,?
Cruzain Triton,.,-4.1%,.,.,.,.

Single records, as listed above. Screens in order: Cruzain inh noDet | MARV entry inh | SARS PLP yeast | NS1 inh | Lassa entry inh | RE007 growth inh | 2A StopGo | Cruzain Triton
Record of CCOC(=O)c1ccccc1NC(=O)CSc1nccn1C → 1% | 15% | 3% | -5% | ? | -7% | -15% | 1.7%
Record of CNC(=O)c1sc(N2N=C3/C(=C/c4ccccc4)CCCC3C2c2ccccc2)nc1C (stereo not given) → ? | ? | 0% | 14% | ? | -1% | ? | -5.1%

Further records.
[31] Cc1cc(C=O)c(C)n1-c1sc2c(c1C(=O)O)CCCC2
[32] O=C(CN(C(=O)c1csnn1)c1cccc(C(F)(F)F)c1)NCCc1ccccc1
[33] COc1ccc(C(=O)Nc2ccc3c(c2)C(=O)N(C)C3=O)cc1OC
[34] CSc1snc(SCC(N)=O)c1C#N
[35] CCCC(=O)Nc1cc(OC)c(OC)cc1C(=O)O
[36] CC1(C)Cc2nc(NCCCO)c(C#N)cc2CO1
assay / entry,31,32,33,34,35,36
Cruzain inh noDet,-2%,.,.,-17%,-14%,-25%
MARV entry inh,1%,18%[46.1 µM],?,?,8%,12%
SARS PLP yeast,-21%,5%,8%,3%,.,0%
NS1 inh,17%,7%,2%,-6%,-6%,5%
Lassa entry inh,1%,-1%,1%,10%,16%,15%
RE007 growth inh,.,16%,12%,-2%,-6%,29%
2A StopGo,-6%,-16%,61%[activator],-17%,-21%,-10%
Cruzain Triton,-3.0%,.,.,3.1%,0.3%,-1.7%

[37] CCOc1ccc(CN(C)C(=O)c2ccc(=O)[nH]c2)cc1
[38] COc1ccc(NC(=O)c2cc(C(C)=O)n3ccccc23)cc1Cl
[39] COc1ccc(CN(C)C(=O)C2CSC3(C)CCC(=O)N23)cc1 (stereo not given)
[40] O=c1c2ccccc2n(CC(O)CN2CCCCC2)c2ccccc12 (stereo not given)
[41] Nc1cncc(C(=O)O)c1
[42] CC(=O)N1c2ccc(S(=O)(=O)N(C)CC(=O)NC3CCCCC3C)cc2CC1C (stereo not given)
assay / entry,37,38,39,40,41,42
Cruzain inh noDet,.,?,.,.,.,.
MARV entry inh,0%[46.1 µM],.,?,-25%&-25%[46.1 µM],-3%&7%[46.1 µM],.
SARS PLP yeast,2%,.,1%,0%,0%&1%,7%
NS1 inh,1%,.,.,9%,-2%,?
Lassa entry inh,7%,?,-26%,?,16%&-7%,.
RE007 growth inh,14%,.,1%,-3%,17%&32%,5%
2A StopGo,-8%,6%,-5%,1%,-18%&2%,3%
Cruzain Triton,.,-7.6%,.,.,.,.

A few values from the entries so far:
SARS PLP yeast, CC(=O)N1c2ccc(S(=O)(=O)N(C)CC(=O)NC3CCCCC3C)cc2CC1C (stereo not given) : 7%
2A StopGo, O=c1c2ccccc2n(CC(O)CN2CCCCC2)c2ccccc12 (stereo not given) : 1%
2A StopGo, COc1ccc(NC(=O)c2cc(C(C)=O)n3ccccc23)cc1Cl : 6%

(continued)
[43] CC1CN(CC(=O)NCc2ccc(F)cc2)CC(C)O1 (stereo not given)
[44] CN(Cc1ccccc1)c1cc(Cl)nc(N)n1
[45] CC1(c2ccccc2)NC(=O)N(CC(=O)Nc2ccccc2N2CCCC2)C1=O (stereo not given)
[46] CCOC(=O)N1CCN(CC(=O)N2c3ccccc3Sc3ccccc32)CC1
[47] Cc1ccc(-n2c(C)cc(C(=O)COC(=O)c3c(C)noc3C)c2C)cc1
[48] CCOC(=O)c1ccc(CN(Cc2ccc(F)cc2)S(=O)(=O)c2ccc(F)c(C(=O)Nc3ccccc3C(F)(F)F)c2)cc1
assay / entry,43,44,45,46,47,48
Cruzain inh noDet,.,.,.,.,-7%,1%
MARV entry inh,-1%[46.1 µM],-11%[46.1 µM],-20%,-18%,?,.
SARS PLP yeast,1%,1%,3%,-1%,-26%,.
NS1 inh,10%,2%,.,8%,-61%,.
Lassa entry inh,1%[46.1 µM],?,-17%,-11%,?,-1%[46.1 µM]
RE007 growth inh,1%,18%,15%,3%,8%,.
2A StopGo,6%,0%,15%,-4%,-15%,-9%
Cruzain Triton,.,.,.,.,0.0%,0.8%

[49] Cc1ccc2cc(C)c3nnc(SCC(=O)Nc4nc5c(s4)CCCC5)n3c2c1
[50] Cc1cc(O)c(C(c2ccccc2)N2CCN(C)CC2)c(=O)n1Cc1ccco1 (stereo not given)
[51] O=C(C1CCC(Cn2c(=O)c3sccc3n(Cc3ccccc3)c2=O)CC1)N1CCCCC1 (stereo not given)
[52] O=C(Nc1ccncc1)c1cccc2ccccc12
assay / entry,49,50,51,52
Cruzain inh noDet,?,?,3%,.
MARV entry inh,-2%,.,.,?
SARS PLP yeast,2%,.,.,0%
NS1 inh,17%,.,.,-3%
Lassa entry inh,.,5%[46.1 µM],18%[46.1 µM],?
RE007 growth inh,.,.,.,-1%
2A StopGo,.,-16%,-27%,-22%
Cruzain Triton,-2.2%,-0.8%,-7.7%,.
